Screening results deposited in PubChem BioAssay by National Center for Advancing Translational Sciences (NCATS).
VACV Venus inh = qHTS for Stage-Specific Inhibitors of Vaccinia Orthopoxvirus: Venus Reporter Primary qHTS. Vaccinia virus Venus reporter expression, fluorescence. Potency, µM (titrated, usually from 36.5 µM), without a hit: at the highest dose activity change, negative = inhibition, actives largely listed as inhibitors. 330,000 compounds, 0.46% hits; active means well fitted inhibition curve with a large enough effect; inconclusive means small, poorly fitted or top-dose-only effect; inactive means no such curve, though single readings can be large or run the other way; tested in A549 cells; further: nearly all actives have a fitted effect of over 30% in size; inactives centre near -10
VACV mCherry inh = qHTS for Stage-Specific Inhibitors of Vaccinia Orthopoxvirus: mCherry Reporter Primary qHTS; Vaccinia virus mCherry reporter infection, fluorescence; about a quarter of the inactives have no number; AID 720579, 2013; Potency, µM (highest dose often 36.5 µM), for inactives: at the top dose activity change, negative = inhibition, hits mostly inhibitors; 310,000 compounds, 0.63% hits; active = well fitted inhibition curve with a large enough effect; inconclusive = small, poorly fitted or top-dose-only effect; inactive = no such curve, though single readings can be large or run the other way; tested in A549 cells; further: nearly all actives have a fitted effect of over 35% in size; inactives centre near -10
An asterisk follows results filed as active; i = inactive; ? = inconclusive; / = not tested or not shown; & = joins results of further samples; [ ] = dose if it differs, or a comment. On the % scale 0 is the no-effect control and ±100 the full control effect; potency means the concentration at half of the fitted maximal effect.

SMILES	VACV Venus inh	VACV mCherry inh
COc1ccc(-n2ccnc2CN2CCCC(CO)(Cc3cccc(OC)c3)C2)cc1 (stereo unspecified)	-4%	-3%
Cc1ccc(C(=O)Nc2ccc(Cl)cn2)cc1S(=O)(=O)N1CCOCC1	-23%	-21%
Cn1cnc2c(=O)oc3ccc(S(=O)(=O)N4CCN(c5ccccc5F)CC4)cc3c21	-2%	-6%
O=C(Cc1c[nH]c2ccccc12)N1CCC(n2c(C3CCCO3)nc3cc(C(F)(F)F)ccc32)CC1 (stereo unspecified)	-12%	-14%
CC(C)CN(C(=O)COC(=O)CNC(=O)c1ccccc1F)C1CCS(=O)(=O)C1 (stereo unspecified)	-5%	i
O=C(NC1=NCCS1)c1sc2cc(Cl)cc(Cl)c2c1Cl	-4%	-3%
OCCCn1c(C(CO)Nc2nc(-c3ccc(Cl)cc3)cs2)nc2ccccc21 (stereo unspecified)	?	-12%
CCN1C[C@@H]2[C@@H]3C(=O)N(Cc4ccccc4)C(=O)[C@@H]3[C@](Cc3ccccc3)(C1=O)N2C(=O)c1ccc(Cl)c(Cl)c1	-30%	-14%
CC(C)C(NC(=O)OCc1ccccc1)C(=O)OCC(=O)N1CCCCC1 (stereo unspecified)	15%	/
COc1cccc(NC(=O)c2cc(-c3ccccn3)nc3ccccc23)c1	1%	-12%
Cc1cc(C(=O)CN2C(=O)c3ccccc3C2=O)c(C)n1Cc1cccs1	-18%	-15%
COc1ccc2oc(C(=O)N(C)Cc3ccc4c(c3)OCCO4)c(C)c2c1	-9%	-15%
Cc1cc(C)cc(N(CCC#N)C(=O)CSc2nc3nc(C)cc(C)n3n2)c1	-8%	i
COc1ccc(NC(=O)C2(C)CCN2C(=O)Cc2ccccc2)cc1OC (stereo unspecified)	-8%	11%
CC(C)(C)OC(=O)NCc1nc(N)n[nH]1	-3%	/
O=[N+]([O-])c1ccccc1S(=O)(=O)Nc1cccnc1	1%	-11%
CCOC(=O)/C(C#N)=C/c1cccc(C)c1	-8%	i
Cc1cc(-c2n[nH]c(=S)n2/N=C/C(Cl)=C/c2ccccc2)n[nH]1	-28%	-13%
CCOC(=O)C1CCN(S(=O)(=O)c2c(C)[nH]c(C)c2C(=O)N2CCCCC2)CC1	-12%	-20%
CN(C)c1ccc(/C=C2\C=Cc3ccccc32)cc1	2%	24%
C[C@@H]1CN(Cc2nc(Cc3ccccc3F)no2)C[C@H](C)O1	-3%	-5%
COC(=O)c1ccccc1NC(=O)c1ccc(NC(=O)C2CCCO2)cc1 (stereo unspecified)	-9%	-1%
O=C(Nc1ccc(NC(=O)c2ccco2)nc1)c1ccco1	-10%	i
Cn1cc(C(=O)c2ccc(Cl)cc2Cl)cc1C(=O)N/N=C(\N)COc1cccc(C(F)(F)F)c1	?	?
CCOC(=O)c1cc2c(n(-c3ccc(C)cc3)c1=O)CCCC2=O	-6%	i
COc1ccc(C(=O)Nc2cc(C(F)(F)F)ccc2-n2cnc3ccccc32)cc1	4%	-9%
O=C(CC[C@H]1O[C@@H](n2ccc(=O)[nH]c2=O)[C@H](O)[C@@H]1O)N[C@H](Cc1ccccc1)C(=O)NC1CCCCC1	4%	51%[activator]
CC(=O)Nc1cccc(Oc2ncnc3scc(-c4ccc(C(C)C)cc4)c23)c1	-9%	-13%
CCN1CCN(C(=O)CN(C)S(=O)(=O)c2cc(C)ccc2OC)CC1	-20%	-12%
O=C1OC[C@H]2CCCC[C@@H](CO)ON12	-23%	-14%
CCOC(=O)c1cc(-c2nnc(-c3ccc(Cl)cc3)o2)c(C)nc1C	-2%	-4%
COc1cc(C(=O)Nc2cccc(-c3nc4ncccc4o3)c2C)cc(OC)c1OC	-1%	/
Cc1ccc(Cn2c(C)c(C(=O)NCc3ccc(Cl)c(Cl)c3)sc2=O)cc1	-8%	-7%
COc1nc(N(C)C)nc(N(C)c2cc(Cl)cc(Cl)c2)n1	-14%	i
O=C(NCc1ccncc1)Nc1cccc(Cl)c1	-13%	i
CCOC(=O)C1=C(COC(=O)CCOc2cccc(C)c2)NC(=O)NC1C (stereo unspecified)	-11%	-16%
COc1cc(/C=N/NC(N)=S)cc(Br)c1OCc1ccccc1F	2.5µM*	?
N#Cc1ccc(CN2C(=O)NC3(CCCCCC3)C2=O)cc1	4%	-21%
COc1cc2c(c(OC)c1O)-c1ccc(OC)c(=O)cc1C(NC(=O)C(F)(F)F)CC2 (stereo unspecified)	?	-5%
CCSc1nnc(NC(=O)CCc2ccccc2)s1	-3%	-14%
CCOC(=O)CNC(=O)CSc1ccc2nnc(-c3ccc(F)cc3)n2n1	-5%	i
COc1ccc(CN2CCCC(C(=O)c3ccccc3SC)C2)cc1O (stereo unspecified)	-8%	-14%
COc1ccc(CC(=O)NNC(=O)CSc2ccc(C)cc2)cc1	1%	-2%
CC1CN(c2ccc(Oc3ccccc3)cc2)c2nc3c(c(=O)[nH]c(=O)n3C)n2C1 (stereo unspecified)	-4%	-8%
Cc1cc(C2=CC(=O)C[C@H](c3ccc(F)cc3)C2)ccc1F	-17%	-19%
Cc1ccc(C)n1-n1cnc2scc(-c3cccs3)c2c1=O	-24%	/
Cc1n[nH]c(C)c1CN(C)C(=O)c1cc(COc2ccc(F)c(F)c2)on1	-16%	-1%
Cc1noc(C)c1S(=O)(=O)N1CCC(C(=O)NCCc2ccc(S(N)(=O)=O)cc2)CC1	-6%	-5%
O=C(NCCCN1CCN(c2ccccc2)CC1)c1sc2ncccc2c1-n1cccc1	-11%[7.34 µM]	-16%[7.34 µM]
Cc1ccc(N=C2SCCCN2C(=O)c2ccco2)cc1Cl	-14%	-17%

Additional entries follow:
SMILES	VACV Venus inh	VACV mCherry inh
O=C(Cn1nc2ccccc2n1)N/N=C/c1cc(Cl)cc([N+](=O)[O-])c1O	-8%	?
COc1c(Cl)cc(Cl)cc1C(=O)Nc1cccc2cccnc12	0%	-4%
CCc1ccc(CCC(=O)Nc2ncc(Cc3ccccc3Cl)s2)o1	?	-18%
O=C(NCc1ccco1)c1cccnc1-c1nc2ccccc2s1	-2%	-9%
O=C(COC(=O)c1c(F)cccc1F)c1ccc[nH]1	-16%	-16%
FC(F)Oc1ccccc1C1CC(c2ccc(Br)s2)Nc2ncnn21 (stereo unspecified)	-24%	/
Cc1ccc(NC(=O)Nc2c(C)n(C)n(-c3ccccc3)c2=O)c(Cl)c1	-17%	-8%
CCOC(=O)[C@]12CCCC=C1N(Cc1ccco1)C(=O)[C@H](CC(=O)NCc1cccs1)C2	-1%	i
Cc1cc(C)c2nc(C)cc(N/N=C/c3ccc(O)cc3)c2c1	?	?
O=C(Cn1c(C(F)(F)F)nc2ccccc21)Nc1ccccc1C(=O)O	-5%	-3%
CN(c1ccccc1)c1nc(N)c(C#N)c(CC#N)c1C#N	-4%	-1%
NC(=O)[C@@H]1CC2(CC(c3cccc(NC(=O)COc4ccc(Cl)cc4)c3)=NO2)CN1C(=O)c1ccccc1 (stereo partly specified)	?	-15%
COc1ccc(OC)c(NS(=O)(=O)c2ccccc2)c1	-21%	28%
COc1cc(CCC(=O)OCC(=O)Nc2ccccc2C(C)C)cc(OC)c1OC	-15%	-1%
COCCCN(C(=S)Nc1cc(Cl)cc(Cl)c1)C(C)c1ccncc1 (stereo unspecified)	-20%	-27%
CCn1c(C(=O)N2CCCC(C(=O)NCCc3ccc(C)cc3)C2)cc2sccc21 (stereo unspecified)	?	?
Cc1cccc(C)c1NC(=O)NC1(C(=O)N2CCOCC2)CCCCC1	-4%	i
CCc1nc2ccc(C(=O)N3CCN(C(=O)c4ccco4)CC3)cn2c1N(CC)CCOC	13%	48%[activator]
COc1ccc(CCNC(=O)COc2cc(=O)n(C)c3ccccc23)cc1OC	-4%	i
COc1cccc(C2c3cc4c(cc3OC(N3CCCC3)C2C)OCO4)c1O (stereo unspecified)	?	-20%

Looked up by structure from the entries so far, 6 records:
SMILES	VACV Venus inh	VACV mCherry inh
Cc1cccc(C)c1NC(=O)NC1(C(=O)N2CCOCC2)CCCCC1	-4%	i
COCCCN(C(=S)Nc1cc(Cl)cc(Cl)c1)C(C)c1ccncc1 (stereo unspecified)	-20%	-27%
COc1cccc(C2c3cc4c(cc3OC(N3CCCC3)C2C)OCO4)c1O (stereo unspecified)	?	-20%
NC(=O)[C@@H]1CC2(CC(c3cccc(NC(=O)COc4ccc(Cl)cc4)c3)=NO2)CN1C(=O)c1ccccc1 (stereo partly specified)	?	-15%
CCc1nc2ccc(C(=O)N3CCN(C(=O)c4ccco4)CC3)cn2c1N(CC)CCOC	13%	48%[activator]
COc1ccc(OC)c(NS(=O)(=O)c2ccccc2)c1	-21%	28%

(list continues)
SMILES	VACV Venus inh	VACV mCherry inh
O=C(Nc1cc(-c2ccccc2)cs1)c1ccco1	-9%	?
Nc1nc2ncccn2c1-c1ccccc1	-8%	-6%
NS(=O)(=O)c1cc(C(=O)OCC(=O)c2ccccc2)c(Cl)cc1Cl	2%	14%
Cc1cc(C)c(C#N)c(SCC(=O)Nc2ccc3c(c2)OCO3)n1	-13%	-10%
COc1ccc(C(C)N2CC34C=CC(O3)C(C(=O)O)C4C2=O)cc1 (stereo unspecified)	-6%	-5%
COC(=O)c1ccc(COc2ccccc2/C=C(\C#N)C(=O)NC(C)C)cc1	-5%	-16%
CC(=O)N1c2ccc(S(=O)(=O)NCC3CCC(C(=O)N4CCC(C)CC4)CC3)cc2CC1C (stereo unspecified)	-20%	-18%
O=C(O)C1CCCCC1C(=O)NCc1ccncc1 (stereo unspecified)	-4%	i
CCc1ccccc1NC(=O)Cn1nnc(-c2cccs2)n1	-5%	-16%
CC(C)c1cccc(C(C)C)c1NC(=O)CCl	-17%	-1%
O=C(CCc1nc2ccccc2c(=O)[nH]1)OCC(=O)c1ccc(C2CCCCC2)cc1	-6%	-8%
N#Cc1c(NC(NC(=O)c2ccco2)C(=O)c2ccccc2)sc2c1CCCC2 (stereo unspecified)	-23%	-1%
CCN1C[C@@]2(OC(=O)c3ccccc3NC(C)=O)CCC(OC)[C@@]34C5CC6C(OC)C[C@@](O)(C(CC23)[C@@H]14)C5(O)C6OC (stereo partly specified)	5%	i
CC1=C/C(=C(/c2cc(C)c(O)c(Br)c2)c2ccccc2S(=O)(=O)O)C=C(Br)C1=O	67%[activator]	261%[activator]
CCCn1c(=O)c2c(c3ccccc31)OCC(=O)N2	?	/
CC(=O)Nc1ccc(NS(=O)(=O)c2ccccc2)c2ccccc12	-1%	-28%
Cn1nc(C(F)(F)F)c(/C=N/OC(=O)c2ccccc2)c1Sc1ccc(Cl)cc1	-23%	/
CCOC(=O)C1=C(C)n2c(s/c(=C3\C(=O)Nc4ccccc43)c2=O)=NC1c1ccc(OC)cc1 (stereo unspecified)	-11%	0%
C=CCn1c(SCC(=O)Nc2ccc(C)cc2C)nnc1-c1cccnc1	0%	/
CCN(CC)C(=O)Sc1cccc2cccnc12	-10%	i

Exported with bars between the fields: entries from further up.
SMILES | VACV Venus inh | VACV mCherry inh
N#Cc1c(NC(NC(=O)c2ccco2)C(=O)c2ccccc2)sc2c1CCCC2 (stereo unspecified) | -23% | -1%
CCN1C[C@@]2(OC(=O)c3ccccc3NC(C)=O)CCC(OC)[C@@]34C5CC6C(OC)C[C@@](O)(C(CC23)[C@@H]14)C5(O)C6OC (stereo partly specified) | 5% | i
CC1=C/C(=C(/c2cc(C)c(O)c(Br)c2)c2ccccc2S(=O)(=O)O)C=C(Br)C1=O | 67%[activator] | 261%[activator]

(next part)
SMILES	VACV Venus inh	VACV mCherry inh
CC1CCN(c2ccc3c(c2)S(=O)(=O)c2cccc(C(=O)NCc4cccc(F)c4)c2C3=O)CC1	33%[activator]	-16%
Cc1ccc(S(=O)(=O)N(C)c2ccc(C(=O)N3CCc4ccccc4C3)cc2)cc1	-1%	-29%
CC1CCN(CC(O)COC2CCC(C(C)(C)C)CC2)CC1 (stereo unspecified)	-22%	?
O=C(NCC1CCCO1)c1ccc(NC(=O)C2CCCCC2C(=O)O)cc1 (stereo unspecified)	15%	/
C/C=C/c1ccc(OCCCCOc2ccccc2F)c(OC)c1	4%	-11%
Cc1cc(=O)[nH]c2nnc(SCCC(C)C)n12	-10%	i
Cc1ccc(NC(=O)CSCC(=O)N(CCC(C)C)c2c(N)n(Cc3ccccc3)c(=O)[nH]c2=O)cc1	-19%	?
NC(N)=Nc1ccc(C=C2C=Cc3ccccc32)cc1	-22%	i
FC(F)(F)c1cnc(Oc2ccccc2-c2nnc(-c3ccc(Cl)cc3)o2)c(Cl)c1	-7%	/
CN(C)c1ccc(C(=C2C=CC(=[N+](C)C)C=C2)c2ccc(N(C)C)cc2)cc1	10µM*	235%&116%[activator]
COc1cc(CNC(C)(C)C)ccc1OCC(=O)NC(C)(C)C	-26%	?
O=C(Cc1ccccc1)N/N=C/c1cccc([N+](=O)[O-])c1	-3%	-15%
COc1ccc(C(=O)CCc2nc3ccccc3s2)cc1	-10%	-24%
O=C(CN1C(=O)c2cccnc2Oc2ccc(Cl)cc21)Nc1cccc(C(F)(F)F)c1	-19%	-28%
COc1ccc(CCNc2nc(-c3sc(N)nc3C)cs2)cc1OC	-24%	/
CC(C)Oc1ccccc1/C=N/Nc1ccccc1[N+](=O)[O-]	-11%	i
O=S(=O)(NC1CCCCC1)c1cccs1	2%	-22%
Cc1ccc(NC2=NC3(CCCC3)N=C(N)N2)c(C)c1	-27%	-17%
Cc1ccc(NC(=O)C2CCN(S(=O)(=O)c3ccc4[nH]c(=O)ccc4c3)CC2)c(C)c1	-16%	-12%
